PV pol inh – poliovirus RdRp elongation inhibitors, primary screen, biochemical, fluorescence polarization, total intensity; poliovirus polymerase elongation; stronger effect = lower value; AID 588519, 2011; actives 0.66% (n = 150,000); % elongation, % (compound at 16.7 µg/mL); in the data active means % elongation below about 90%; further: some results filed as inactive read as strong as hits
Target sequence (P03300 1749-2209 limits assumed): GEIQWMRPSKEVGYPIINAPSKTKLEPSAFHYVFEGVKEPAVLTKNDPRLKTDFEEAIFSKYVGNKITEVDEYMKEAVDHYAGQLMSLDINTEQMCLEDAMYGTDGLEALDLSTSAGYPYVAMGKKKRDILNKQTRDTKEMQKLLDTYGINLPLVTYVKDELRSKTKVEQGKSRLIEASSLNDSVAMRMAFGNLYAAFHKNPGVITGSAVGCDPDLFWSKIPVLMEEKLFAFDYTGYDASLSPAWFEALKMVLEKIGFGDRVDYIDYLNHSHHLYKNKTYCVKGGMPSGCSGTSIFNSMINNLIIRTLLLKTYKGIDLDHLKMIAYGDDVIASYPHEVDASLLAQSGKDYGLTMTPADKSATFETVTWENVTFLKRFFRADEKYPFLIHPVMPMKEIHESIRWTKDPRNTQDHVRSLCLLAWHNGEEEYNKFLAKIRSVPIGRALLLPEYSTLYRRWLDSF
PV pol inh intensity – further read-out of PV pol inh, marked with its call; % elongation; measured here: total intensity read-out; formula for this scale not given here;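 total fluorescence in place of polarization; lower means less elongation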
* = called active by the depositor.

CCSc1nnc2c(n1)OC(c1ccc(OC)cc1OC)N(C(C)=O)c1ccccc1-2 (configuration not stated)
- PV pol inh: 106
- PV pol inh intensity: 111
CCCS(=O)(=O)Nc1cc(-c2cn3cccc(C)c3n2)ccc1C
- PV pol inh: 98
- PV pol inh intensity: 106
CCOc1ccccc1NC(=O)C(C)Sc1nc(-c2ccccc2)c(C#N)c(=O)[nH]1 (configuration not stated)
- PV pol inh: 103
- PV pol inh intensity: 102
Cc1ccc(S(=O)(=O)Nc2nc3n(n2)C(c2ccccc2Cl)C=C(c2ccccc2)N3)cc1 (configuration not stated)
- PV pol inh: 105
- PV pol inh intensity: 102
CCn1c(SCc2ccccc2)nnc1-c1nonc1NC(C)=O
- PV pol inh: 105
- PV pol inh intensity: 97
O=C(O)c1sc(Nc2ccccc2)nc1-c1ccccc1
- PV pol inh: 100
- PV pol inh intensity: 103
CCOc1ccc(NC(=O)CCC(=O)N2CC(C)Oc3ccc(C)cc32)cc1 (configuration not stated)
- PV pol inh: 107
- PV pol inh intensity: 110
Cc1ccccc1Nc1nnc(-c2ccc(C)c(S(=O)(=O)NCC3CCCO3)c2)c2ccccc12 (configuration not stated)
- PV pol inh: 110
- PV pol inh intensity: 113
CCOc1ccc(S(=O)(=O)N(CC(=O)NCCSCc2ccc(C)cc2)c2ccccc2)cc1
- PV pol inh: 106
- PV pol inh intensity: 108
COc1ccc(/C=C/C(=O)Nc2cc(-c3nc4ccccc4o3)ccc2OC)cc1
- PV pol inh: 102
- PV pol inh intensity: 109
CCc1ccccc1NC(=O)CCc1c(C)nn(-c2ccc(N3CCOCC3)nn2)c1C
- PV pol inh: 103
- PV pol inh intensity: 103
CCn1c(C)c(C)c2cc(C(=O)NCc3cccc(C)c3)ccc21
- PV pol inh: 109
- PV pol inh intensity: 110
CCc1ccccc1NC(=O)c1cc2c(Cl)nc3ccccc3c2s1
- PV pol inh: 105
- PV pol inh intensity: 107
Cc1ccccc1NC(=O)Cn1c(=O)n(-c2ccc(CC(=O)NCC3CCCO3)cc2)c(=O)c2ccccc21 (configuration not stated)
- PV pol inh: 107
- PV pol inh intensity: 111
O=C(c1ccc2c(c1)N(Cc1ccc(Cl)cc1)C(=O)c1ccccc1S2=O)N1CCOCC1 (configuration not stated)
- PV pol inh: 73*
- PV pol inh intensity: 73*
COc1ccccc1NC(=O)c1ncoc1-c1ccco1
- PV pol inh: 104
- PV pol inh intensity: 105
COc1ccccc1C(=O)Nc1ccc(C(=O)OCc2cc(=O)n3nc(C)sc3n2)cc1
- PV pol inh: 102
- PV pol inh intensity: 98
COc1ccc2c(c1)CCc1c(C(=O)Nc3c(C)nn(Cc4ccccc4Cl)c3C)noc1-2
- PV pol inh: 101
- PV pol inh intensity: 102
CCN(CC)CCCNC(=O)c1nn(C)c2c1CSc1ccccc1-2
- PV pol inh: 112
- PV pol inh intensity: 101
COC(=O)N1CCCc2cc(S(=O)(=O)N3CCN(c4ccccc4)CC3)ccc21
- PV pol inh: 100
- PV pol inh intensity: 102
Cc1ccc(N2CC(NC(=O)CCc3ccccc3)CC2=O)cc1C (configuration not stated)
- PV pol inh: 108
- PV pol inh intensity: 108
Cc1ccc(Cl)cc1NC(=O)c1oc2c(c1C)-c1[nH]ncc1CC2
- PV pol inh: 78*
- PV pol inh intensity: 69*
O=C(Nc1cc(F)ccc1F)c1ccc(CN2CC(=O)N3CCCCC3C2=O)cc1 (configuration not stated)
- PV pol inh: 110
- PV pol inh intensity: 114
CCn1c2ccccc2c2cc(NC(=O)COc3ccc(C)c(C)c3)ccc21
- PV pol inh: 105
- PV pol inh intensity: 99
O=C(NCc1ccc(Cl)cc1)C1CCN(c2ncnc3c2nc2n3CCCCC2)CC1
- PV pol inh: 100
- PV pol inh intensity: 99

A second format for three compounds above:
smiles | PV pol inh | PV pol inh intensity
CCOc1ccccc1NC(=O)C(C)Sc1nc(-c2ccccc2)c(C#N)c(=O)[nH]1 (configuration not stated) | 103 | 102
Cc1ccc(S(=O)(=O)Nc2nc3n(n2)C(c2ccccc2Cl)C=C(c2ccccc2)N3)cc1 (configuration not stated) | 105 | 102
CCn1c(SCc2ccccc2)nnc1-c1nonc1NC(C)=O | 105 | 97

More records
Cc1ccc(C)c(N2CCN(CCCNC(=O)Nc3ccc(Cl)cc3)CC2)c1
- PV pol inh: 104
- PV pol inh intensity: 106
Cc1cccc(-n2c(=O)c3c(c4cc(C)ccc4n3C)n(C)c2=O)c1
- PV pol inh: 105
- PV pol inh intensity: 107
Cc1ccc(C)n1-c1nnc(N2CCCC(C(=O)NCc3cccc(Cl)c3)C2)s1 (configuration not stated)
- PV pol inh: 105
- PV pol inh intensity: 108
CCCCOc1ccccc1C1CC(=O)Nc2cc(C)c(C)cc21 (configuration not stated)
- PV pol inh: 103
- PV pol inh intensity: 110
COc1ccc(OC)c(CNC(=O)c2cc3c(=O)oc4ccc(C)cc4c3s2)c1
- PV pol inh: 107
- PV pol inh intensity: 113
COc1ccccc1CCNC(=O)C(=O)NCC(c1ccc2c(c1)OCO2)N1CCOCC1 (configuration not stated)
- PV pol inh: 107
- PV pol inh intensity: 113
COc1ccc(-c2[nH]c(-c3ccc(OC)c(OC)c3)nc2SCC(=O)Nc2ccccc2)cc1
- PV pol inh: 111
- PV pol inh intensity: 107
CCOCCCNc1nc2c(S(=O)(=O)c3ccc(CC)cc3)nnn2c2ccc(Cl)cc12
- PV pol inh: 104
- PV pol inh intensity: 107
COc1ccc(C2=NN(CC(=O)NCCCN(C)c3ccccc3)C(=O)CC2)cc1
- PV pol inh: 104
- PV pol inh intensity: 109
COC(=O)c1cc(NC(=O)Nc2ccc3snnc3c2)cc(C(=O)OC)c1
- PV pol inh: 107
- PV pol inh intensity: 107
Cc1ccc(N2CCN(S(=O)(=O)c3cc(C(=O)Nc4cc(Cl)cc(Cl)c4)ccc3F)CC2C)cc1 (configuration not stated)
- PV pol inh: 110
- PV pol inh intensity: 110
COCCCNC(=O)C1CCN(c2ncnc3c2nc2n3CCCCC2)CC1
- PV pol inh: 103
- PV pol inh intensity: 105
Cc1cccc(-c2nc(CCNC(=O)Cc3ccc(F)cc3)cs2)c1
- PV pol inh: 105
- PV pol inh intensity: 106
Cc1cc(NC(=O)COCc2cc(-c3ccc(F)cc3)on2)ccc1Br
- PV pol inh: 99
- PV pol inh intensity: 102
CCN(CC)C(=O)c1sc2c(c1C)c(=O)n(-c1ccccc1)c(=O)n2CC(=O)N(CC)c1cccc(C)c1
- PV pol inh: 107
- PV pol inh intensity: 114
Cc1ccc(NC(=O)C2CCCN(c3nnc(-n4c(C)ccc4C)s3)C2)c(C)c1 (configuration not stated)
- PV pol inh: 111
- PV pol inh intensity: 101
COc1ccccc1CNC(=O)c1ccc2c(c1)N(Cc1cccc(Cl)c1)C(=O)c1ccccc1S2(=O)=O
- PV pol inh: 104
- PV pol inh intensity: 114
CC(NC(=O)C1CCN(C(=O)c2ccc(-n3ccc4ccccc43)s2)CC1)c1ccccc1 (configuration not stated)
- PV pol inh: 110
- PV pol inh intensity: 117
COc1ccc(CNC(=O)Cn2ccc3cc(S(=O)(=O)N4CCCCCC4)ccc32)cc1OC
- PV pol inh: 104
- PV pol inh intensity: 101
Cc1ccc2onc(CNC(=O)Nc3cc(F)ccc3F)c2c1
- PV pol inh: 113
- PV pol inh intensity: 105
Cc1cc(C)c2c(CC(=O)Nc3ccc(S(=O)(=O)Nc4ncccn4)cc3)coc2c1
- PV pol inh: 115
- PV pol inh intensity: 112
COc1ccc(CN(C(=O)Nc2ccc(C)c(F)c2)C2CCN(C(C)=O)CC2)cc1
- PV pol inh: 106
- PV pol inh intensity: 109
CCOc1ccc2c(c1)sc1nc(=O)n(-c3ccc(Cl)c(Cl)c3)c(=O)n12
- PV pol inh: 109
- PV pol inh intensity: 112
COc1ccc(C)c2sc(NC(=O)c3ccc(S(=O)(=O)N4CCCC4)cc3)nc12
- PV pol inh: 109
- PV pol inh intensity: 115
CN(C)c1cc2c(cc1NS(=O)(=O)c1ccccc1)n(C)c(=O)n2C
- PV pol inh: 104
- PV pol inh intensity: 106

Quoted at random: 5 records from the list, in no set order.
Cc1cccc(-n2c(=O)c3c(c4cc(C)ccc4n3C)n(C)c2=O)c1
- PV pol inh: 105
- PV pol inh intensity: 107
Cc1cccc(-c2nc(CCNC(=O)Cc3ccc(F)cc3)cs2)c1
- PV pol inh: 105
- PV pol inh intensity: 106
COc1ccc(-c2[nH]c(-c3ccc(OC)c(OC)c3)nc2SCC(=O)Nc2ccccc2)cc1
- PV pol inh: 111
- PV pol inh intensity: 107
COc1ccc(C2=NN(CC(=O)NCCCN(C)c3ccccc3)C(=O)CC2)cc1
- PV pol inh: 104
- PV pol inh intensity: 109
CCOc1ccc2c(c1)sc1nc(=O)n(-c3ccc(Cl)c(Cl)c3)c(=O)n12
- PV pol inh: 109
- PV pol inh intensity: 112

Rewritten in markdown: part of the list above.
| smiles | PV pol inh | PV pol inh intensity |
| --- | --- | --- |
| Cc1cc(NC(=O)COCc2cc(-c3ccc(F)cc3)on2)ccc1Br | 99 | 102 |
| COc1ccc(C)c2sc(NC(=O)c3ccc(S(=O)(=O)N4CCCC4)cc3)nc12 | 109 | 115 |

(further entries)
Cc1ccccc1OCC(=O)Nc1ccccc1OCc1cc(=O)n2ccccc2n1
- PV pol inh: 110
- PV pol inh intensity: 111
CNC(=O)CN1C(=O)COc2ccc(S(=O)(=O)N3CCC(C)CC3)cc21
- PV pol inh: 98
- PV pol inh intensity: 102
Cn1c(=O)c2c(n3c4ccccc4nc13)NC(=O)CC2c1ccccc1F (configuration not stated)
- PV pol inh: 99
- PV pol inh intensity: 94
CC(C)Oc1ccc(C(=O)Nc2nnc3n2CCS3)cc1
- PV pol inh: 115
- PV pol inh intensity: 108
CCc1nn(CC(=O)NC2CC2)c(=O)c2cc3ccccc3n12
- PV pol inh: 118
- PV pol inh intensity: 109
CCN(CC)S(=O)(=O)c1cccc(C(=O)Nc2ccccc2C(=O)Nc2ccc(OC)cc2)c1
- PV pol inh: 107
- PV pol inh intensity: 117
Cc1cccc(C(=O)OCc2cc(=O)n3nc(C4CC4)sc3n2)c1
- PV pol inh: 107
- PV pol inh intensity: 113
CCOC(=O)c1cccc(NS(=O)(=O)c2cc(-c3cnc(C4CC4)o3)ccc2C)c1
- PV pol inh: 112
- PV pol inh intensity: 110
COc1cccc(C(=O)c2cn(CC(=O)Nc3cccc(C)c3C)c3nc(C)ccc3c2=O)c1
- PV pol inh: 105
- PV pol inh intensity: 107
COc1cccc(OCc2nc3ccccc3n2CCOc2ccccc2)c1
- PV pol inh: 102
- PV pol inh intensity: 103
Cc1ccc(-c2nn(CC(=O)NC3CCCCC3)c3c2cnc2ccccc23)cc1
- PV pol inh: 102
- PV pol inh intensity: 110
O=C(CCSCc1cccc(Cl)c1)NCc1ccccc1Cl
- PV pol inh: 115
- PV pol inh intensity: 120
O=C(Nc1cccc(C(F)(F)F)c1)Nc1nnc(N2CCCCCC2)s1
- PV pol inh: 105
- PV pol inh intensity: 111
CC(C)(C)OC(=O)N1CCC(c2c(C(=O)N3CCN(C4CCCCC4)CC3)cnn2-c2cccc(Cl)c2)CC1
- PV pol inh: 102
- PV pol inh intensity: 107
Cc1ccc(NC(=O)[C@@H](c2ccccc2)N2Cc3ccccc3C2=O)cc1
- PV pol inh: 103
- PV pol inh intensity: 102
COc1ccc(CNC(=O)Cn2c(=O)nc(-c3ccccc3)c3ccccc32)cc1OC
- PV pol inh: 107
- PV pol inh intensity: 109
Cc1nc2nc(SCC(=O)O)nn2c(C)c1Cc1c(F)cccc1Cl
- PV pol inh: 108
- PV pol inh intensity: 112
CCC12CN3CC(C)(CN(C1)C3c1c[nH]c3ccc(OC)cc13)C2=O (configuration not stated)
- PV pol inh: 103
- PV pol inh intensity: 104
COc1ccc(S(=O)(=O)c2c(Nc3c(C)cccc3C)sc(C(=O)c3ccc4c(c3)OCO4)c2N)cc1
- PV pol inh: 100
- PV pol inh intensity: 103
CSc1ncc(C(=O)Nc2cc(Cl)ccc2C)c(-c2ccccc2)n1
- PV pol inh: 100
- PV pol inh intensity: 103
CCc1nn(CC(=O)N2CCN(c3cccc(Cl)c3)CC2)c(=O)c2cc3sccc3n12
- PV pol inh: 105
- PV pol inh intensity: 106
COc1ccc(-c2cn(-c3ccc(C)cc3)c(S(=O)(=O)CC(=O)Nc3ccc(F)cc3)n2)cc1
- PV pol inh: 101
- PV pol inh intensity: 98
O=C(Nc1ccc(F)c(Cl)c1)C1CCCN(c2ncnc3onc(-c4ccc(F)cc4)c23)C1 (configuration not stated)
- PV pol inh: 109
- PV pol inh intensity: 110
CCc1ccc(NC(=O)C2CCCN(S(=O)(=O)c3ccc4[nH]c(=O)ccc4c3)C2)cc1 (configuration not stated)
- PV pol inh: 110
- PV pol inh intensity: 106
O=C(NCc1ccc(Cl)cc1)C(=O)NCC(c1cccnc1)N1CCN(c2ccccc2)CC1 (configuration not stated)
- PV pol inh: 105
- PV pol inh intensity: 108

CCc1cccc(C)c1NC(=O)c1cc(S(=O)(=O)N(C)Cc2ccccc2)ccc1F
- PV pol inh: 108
- PV pol inh intensity: 106
COc1ccc(-n2c(=O)c3sc4ccccc4c3n(CC(=O)NC3CCCCC3)c2=O)cc1
- PV pol inh: 111
- PV pol inh intensity: 112
COc1ccc(OC)c(NC(=O)CCCc2nnc3n(C(C)C)c(=O)c4sccc4n23)c1
- PV pol inh: 119
- PV pol inh intensity: 118
COc1cccc(C(=O)Nc2cccc(-c3nc4ncccn4c3C)c2)c1
- PV pol inh: 98
- PV pol inh intensity: 95
COC(=O)c1c(SC)nc2ccccc2c1OCc1cc(C)ccc1C
- PV pol inh: 109
- PV pol inh intensity: 97
Cc1ccc(-c2nc3n(n2)C(=O)CC(c2ccc(C)cc2)S3)cc1 (configuration not stated)
- PV pol inh: 107
- PV pol inh intensity: 107
COc1cccc([C@H]2Nc3ccc(S(=O)(=O)Nc4cc(C)ccc4C)cc3[C@H]3C=CC[C@H]32)c1
- PV pol inh: 119
- PV pol inh intensity: 139
CCc1ccc(NS(=O)(=O)c2cc(-c3cnc(C4CC4)o3)ccc2C)cc1
- PV pol inh: 109
- PV pol inh intensity: 103

Not all compounds are listed; rates above refer to the full screens.
